# Screens deposited in PubChem BioAssay by National Center for Advancing Translational Sciences (NCATS).
# VDR inhibitor = inhibitors of human vitamin D receptor; hit rate 0.93% among 400,000; VDR-SRC2-3 peptide fluorescence polarization, 2 h; Potency, µM, for the others: max response, negative = inhibition, usual class: inhibitors; active = well fitted inhibition curve with a large enough effect; inconclusive = small, poorly fitted or top-dose-only effect, or another doubt; inactive = no such curve, though single readings can be large or run the other way; also: series mostly up to about 120 µM
# Target sequence (P11473 whole entry, looked up): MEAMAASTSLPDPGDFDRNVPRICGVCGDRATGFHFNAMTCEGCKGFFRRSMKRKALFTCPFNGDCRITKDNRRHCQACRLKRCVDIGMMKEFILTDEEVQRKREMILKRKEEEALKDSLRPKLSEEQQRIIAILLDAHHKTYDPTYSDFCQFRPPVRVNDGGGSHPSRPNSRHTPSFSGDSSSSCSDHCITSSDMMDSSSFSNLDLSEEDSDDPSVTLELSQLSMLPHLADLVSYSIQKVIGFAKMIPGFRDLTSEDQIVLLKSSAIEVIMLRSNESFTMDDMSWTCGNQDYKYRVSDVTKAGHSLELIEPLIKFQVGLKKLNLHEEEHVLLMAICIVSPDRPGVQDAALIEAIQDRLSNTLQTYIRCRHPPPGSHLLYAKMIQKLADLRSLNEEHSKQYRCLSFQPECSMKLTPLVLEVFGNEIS
#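 The screen uses fluorescence polarization to detect compounds that interfere with recruitment of the SRC2-3 coactivator peptide to VDR; plates are read after 2 h at room temperature.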
# Active calls of the source: *; ? = inconclusive. % is scaled to controls: 0 for no effect and ±100 for the full control effect; potency is read from the fitted curve at half-maximal effect. Not all compounds are listed. The share of hits here may be higher or lower than overall.
# Start of the listing, in advance:
molecule | VDR inhibitor
CCN(C(=O)Cn1c([N+](=O)[O-])cnc1C)c1ccccc1 | 1%
CCOCCOc1cccc(C(=O)NC(c2ccccc2)C(C)C)c1 (stereo not drawn) | -6%
CC(=O)c1ccc(NC(=O)CN(c2c(C)cccc2C)S(C)(=O)=O)cc1 | 1%
CC(=O)Nc1cccc(OCc2c(F)cccc2Cl)c1 | 19%
Cc1ccc(/C=C/c2nc3ccccc3n2S(=O)(=O)c2cccc(Cl)c2)cc1 | -1%
CCc1ccc(S(=O)(=O)O)cc1 | -2%

# This part in full, repeating the preview:
molecule | VDR inhibitor
CCN(C(=O)Cn1c([N+](=O)[O-])cnc1C)c1ccccc1 | 1%
CCOCCOc1cccc(C(=O)NC(c2ccccc2)C(C)C)c1 (stereo not drawn) | -6%
CC(=O)c1ccc(NC(=O)CN(c2c(C)cccc2C)S(C)(=O)=O)cc1 | 1%
CC(=O)Nc1cccc(OCc2c(F)cccc2Cl)c1 | 19%
Cc1ccc(/C=C/c2nc3ccccc3n2S(=O)(=O)c2cccc(Cl)c2)cc1 | -1%
CCc1ccc(S(=O)(=O)O)cc1 | -2%
COc1ccc2c(c1)SCC(=O)N2C | 1%
CCc1ccc(CNC(=O)CSc2cc(=O)n(CC)c3ccccc23)cc1 | -21%
CC1CCCCC1NC(=O)c1ccc(CNc2c(N3CCCC3)c(=O)c2=O)cc1 (stereo not drawn) | 2%
O=C1N(Cc2ccccc2Cl)c2ccccc2C1(O)c1c[nH]c2ccccc12 (stereo not drawn) | 8%
COc1ccccc1CC(=O)Nc1cc(OC)c(NC(=O)c2ccccc2)cc1OC | 14%
COc1ccc(S(=O)(=O)N2CCCCC2)cc1NC(=O)CNc1ccccc1C(C)=O | 23%
CN(C)c1ccc(/C=N/NC(=O)C2CC2c2ccccc2)cc1 (stereo not drawn) | -12%
O=C(CSc1nc2cc(Cl)ccc2s1)NC(=O)NCc1ccco1 | 8%
COC(=O)[C@]1(Cc2ccccc2)N[C@H](c2ccc(-c3ccccc3)cc2)[C@@H]2C(=O)N(C)C(=O)[C@@H]21 | -4%
O=C(c1cccc(Cl)c1)N1c2ncnn2C2(CCCCC2)[C@@H]2CCCC[C@@H]21 | 1%
CSCCOC(=O)C1=C(C)NC(=O)NC1c1ccc2c(c1)OCO2 (stereo not drawn) | -8%
Cc1ccc(C(=O)Cn2nc(C(=O)O)c3ccccc3c2=O)cc1C | -2%
Cn1cc(Cl)c(C(=O)N(Cc2ccccc2)c2ccccn2)n1 | 18%
Cc1cccnc1NC(=O)Cn1c(=O)oc2ccccc21 | 12%
CCOc1ccc(-c2cc3nc(C4CCN(C(=O)OC(C)(C)C)CC4)c(C(=O)Nc4c(C)cccc4C)cn3n2)cc1 | -20%
O=C(NN(C(=O)c1ccccc1)c1ccccc1)c1ccccc1 | 16%
CC(C)[C@H](NC(=O)NCc1ccco1)C(=O)O | ?
O=C1C2C3C=CC(C3)C2C(=O)N1c1ccc(-c2nc3ccccc3c(=O)o2)cc1 (stereo not drawn) | -5%
O=C(CN1CCOCC1)Nc1ccc(S(=O)(=O)N2CCCCCC2)cc1 | -3%
C#CCOCCOCCOCCNc1nc(N2CCOCC2)nc(N2CCN(C(=O)[C@H](CCCCN)n3cc([C@@H](N)CO)nn3)CC2)n1 | -18%
CC(=O)Nc1ccc(-c2ccc3nnc(C)n3n2)cc1 | -6%
Cc1ccccc1-c1nnc(SCC(=O)N(CC(C)C)c2c(N)n(CC(C)C)c(=O)[nH]c2=O)n1C | -5%
Cc1ccc(S(=O)(=O)/N=C2/NC(=O)/C(=C/c3ccc(Br)o3)S2)cc1 | ?
Cc1ccc(COc2ccc3oc(-c4ccccc4)c(C(=O)O)c3c2)cc1 | -2%
Cc1ccc(C(=O)Nc2c(C#N)c(C)c(C)n2Cc2ccccc2)cc1 | -15%
Cc1cc(N/N=C/c2ccncc2)nc2ccccc12 | 2%

# In a second layout: entries from further up
Cc1ccccc1-c1nnc(SCC(=O)N(CC(C)C)c2c(N)n(CC(C)C)c(=O)[nH]c2=O)n1C
  VDR inhibitor: -5%

Cc1ccc(S(=O)(=O)/N=C2/NC(=O)/C(=C/c3ccc(Br)o3)S2)cc1
  VDR inhibitor: ?

Cc1ccc(COc2ccc3oc(-c4ccccc4)c(C(=O)O)c3c2)cc1
  VDR inhibitor: -2%

Cc1ccc(C(=O)Nc2c(C#N)c(C)c(C)n2Cc2ccccc2)cc1
  VDR inhibitor: -15%

# The results go on.
molecule | VDR inhibitor
O=C(CSc1nccn1Cc1ccco1)Nc1ccccc1F | -7%
C=CCn1c(C)cc(C(=O)COc2ccc(C)nc2[N+](=O)[O-])c1C | 3%
CC[C@@]1(C(=O)OC)N[C@H](CN(C)C(=O)NC(C)C)[C@@H]2C(=O)N(C)C(=O)[C@@H]21 | 20%
Cc1ccc(Cn2c(N3CCNCC3)nc3c2c(=O)[nH]c(=O)n3C)cc1 | -5%
COc1cc(CCC(=O)OCC(=O)Nc2ccccc2C#N)cc(OC)c1OC | 4%
O=C(O)CCCC(=O)NNc1ncnc2ccccc12 | 7%
C=CCNC(=S)NNC(=O)c1cccc2ccccc12 | 3%
Cc1nc(SCc2cccc(C(=O)O)c2)nc2c1CCCC2 | -5%
CCOC(=O)c1c(NC(=S)Nc2ccc(OCC)cc2)sc2c1CCN(C)C2 | -13%
Cc1ccc(-n2c(SCC(=O)NCCC3=CCCCC3)nc3n[nH]c(C)c3c2=N)cc1Cl | -6%
COC(=O)c1cc(S(=O)(=O)Nc2cc(S(=O)(=O)N(C)C)ccc2C)oc1C | -11%
Cc1cccc(C)c1NC(=O)CN1C(=O)C2CC=CCC2C1=O (stereo not drawn) | 9%
CC1(C)Cc2c(sc3ncnc(NNC(=S)NCc4ccccc4)c23)CO1 | -13%
CCC(C(=O)Nc1ccc(C(=O)OC)cc1)n1c(=O)c(-c2ccccc2NC(C)=O)nc2ccccc21 (stereo not drawn) | -4%
Cc1snc(SCC(=O)N/N=C(\N)COc2ccc(F)cc2)c1C#N | 14%
Cc1c(CCO)c(=O)oc2n[nH]c(-c3ccccc3)c12 | 1%
COCc1nc(-c2cc(OC)c(OC)c(OC)c2)no1 | 7%
CCCOc1ccc(Cn2cnc3ccccc32)cc1 | -3%
c1ccc(CCc2ccccn2)cc1 | -2%
COc1cccc(-c2ccc3ncnc(NCc4ccc5c(c4)OCO5)c3c2)c1 | -26%
COc1cccc(NC(=O)CN(C)C(=O)c2ccccc2OCc2c(C)noc2C)c1 | -6%
Cn1c(=O)c2sccc2n2c(CCCC(=O)NC3CCN(Cc4ccccc4)CC3)nnc12 | 6%
COc1ccc2ccc3ccc(OC)c(OC(C)=O)c3c2c1 | -11%
Cn1ncc(Oc2ccc([N+](=O)[O-])cc2)c(Cl)c1=O | -19%
COc1ccc(N2C(=O)CC(Sc3ccccc3C(=O)O)C2=O)c([N+](=O)[O-])c1 (stereo not drawn) | -36%
CCOC(=O)c1c(C)oc(NC(=O)COc2ccc(Cl)cc2C)c1C#N | 17%
CCOC(=O)c1ccc(-n2ccnc2)c(NC(=O)c2ccc(C(C)(C)C)cc2)c1 | -8%
O=C(O)[C@H](Cc1ccccc1)N1C(=O)c2c(Cl)c(Cl)c(Cl)c(Cl)c2C1=O | ?
CC(=O)Oc1cccc(C(=O)O)c1OC(C)=O | -1%
O=C(OCCOc1ccccc1)c1cccc(S(=O)(=O)N2CCOCC2)c1 | -3%
COc1cc(N2CN=c3s/c(=C\c4ccccn4)c(=O)n3C2)cc(OC)c1OC | -8%
CCOc1ccc(N2C(=O)CC(N3CC(C)OC(C)C3)C2=O)cc1 (stereo not drawn) | -6%
CCOC(=O)CN(C(=O)CN1CCOCC1)c1ccc(Br)cc1 | -8%
CC(C)c1c(C#N)c(N)nc(SCC(=O)c2cc3ccccc3oc2=O)c1C#N | -4%
C=CCNC(=O)Cn1c(=O)c2c(ncn2CCC(C)C)n(Cc2ccccc2)c1=O | 16%
COCCn1c(C)cc(C(=O)CSc2cc(C)c3ccccc3n2)c1C | -6%
COc1ccccc1NC(=O)c1ccc(NC(=O)CSc2nnnn2C)cc1 | -1%
CCOc1ccccc1N1CCN(S(=O)(=O)c2cccs2)CC1 | 0%
CCOc1ccc(NC(=O)Cc2c(O)c3ccccc3[nH]c2=O)cc1 | 14%
Cc1ccc(S(=O)(=O)Nc2ccc(-c3ccc4nncn4n3)cc2)cc1 | 6%
Cc1ccc(-n2ncc(C(=O)Nc3ccc(C)c(F)c3)c2C2CCN(C(=O)OC(C)(C)C)CC2)cc1C | 4%
CCN(CC)CC(O)c1ccc2ccc3ccc(O)cc3c2c1 (stereo not drawn) | 12%
CN1CCN(NC(=O)NC2CCCCC2)CC1 | 25%
CSc1ccc(/C=C/C(=O)OCC(=O)N(C)CCC#N)cc1 | -2%
O=C(N/N=C\c1cc2c(cc1Cl)OCO2)c1cccs1 | -2%
C=CCn1c(Br)nc2c1c(=O)n(C)c(=O)n2C | -1%
O=C1c2cccc3c(N4CCCCC4)ccc(c23)C(=O)N1c1cccc(O)c1 | -5%
CCOc1ccc(-n2c(=O)[nH]cc(C(=O)Nc3ccc(OC)c(OC)c3)c2=O)cc1 | -1%
CCOC(=O)N1CCN(S(=O)(=O)c2ccc(C(=O)Nc3ccc4c(c3)C(=O)NC4=O)cc2)CC1 | 12%
O=C1CC(N2CCN(C/C=C/c3ccccc3)CC2)C(=O)N1Cc1ccc(N2CCCC2=O)cc1 (stereo not drawn) | -12%
COC(=O)c1ccc(CN(c2ccc(C(=O)O)c(O)c2)S(=O)(=O)c2ccc(Cl)c([N+](=O)[O-])c2)cc1 | -21%
COc1ccc(NC(=O)c2ccc3c(c2)NC(=O)CS3)cc1 | -5%
Clc1ccc(-c2n[nH]c3c2CCC3)c(Cl)c1 | -2%
Nn1c(SCC(=O)NC2CCCc3ccccc32)nnc1-c1cccs1 (stereo not drawn) | 16%
CC1Cc2ccccc2N1C(=O)COC(=O)c1ccc(S(=O)(=O)N(C)C)cc1 (stereo not drawn) | -21%
O=C(NCCOC(=O)c1ccc(F)cc1)c1ccc(F)cc1 | 5%

# Next results:
molecule | VDR inhibitor
N#Cc1ccccc1Cn1c(=O)n(-c2ccc(F)c(Cl)c2)c(=O)c2sccc21 | 6%
CCNC(=S)NNC(=O)c1cc(-c2cccc(OCC)c2)nc2ccccc12 | -2%
COC(=O)c1cn[nH]c1NC(=S)Nc1ccc(C)cc1Cl | -12%
Cc1ccc(NC(=O)Cn2c(=S)[nH]c3ccccc32)cc1 | -14%
O=C(Nc1nnc(C2CC2)s1)c1cccc(S(=O)(=O)N2CC(c3ccccc3)CC2=O)c1 (stereo not drawn) | -2%
CCCNC(=O)c1cc2nc(-c3ccc(Br)cc3)cc(C(F)(F)F)n2n1 | -12%
COc1ccc(CCNC(=O)C2CC(=O)N(c3ccccc3)C2)cc1OC (stereo not drawn) | -2%
Cc1cccc(-c2nc(CS(=O)CC(=O)NCCCSC3CCCCC3)c(C)o2)c1 (stereo not drawn) | 3%
CCN(CC)C(=S)SCC(=O)c1c(C)[nH]c2ccccc12 | 11%
COc1ccc(N2CCN(C(=O)CNC(=O)Cn3c(C)cc4ccccc4c3=O)CC2)cc1 | 3%
CS(=O)(=O)N1CCC(N2CCN(Cc3ccccc3)C(=O)C2=O)CC1 | -6%
C/C(=N\NC(=O)CCC(=O)NCc1ccccc1)c1ccco1 | 9%
COc1ccccc1CP(=O)(c1ccccc1)c1ccccc1 | -6%
O=C(NC(=S)Nc1ccc(Oc2ccccc2)cc1)c1ccc(Cl)cc1 | 10%
Cc1cc(N2CCN(C)CC2)nc2ccc(NC(=O)CCC(=O)NCc3ccco3)cc12 | 1%
Brc1c(CSc2nncc3ccccc23)nc2ccccn12 | -22%
CCOC(=O)N1CCN(c2c(NCc3ccc(F)cc3)c(=O)c2=O)CC1 | -12%
COc1ccc(OC)c(CNC(=O)CCn2nc(C)c3c(C)n(-c4ccccc4)nc3c2=O)c1 | -6%
COc1ccc(C(=O)Nc2ccccc2C(=O)N2CCCCCC2)cc1OC | -1%
CS(=O)(=O)NN1C(=O)c2ccccc2NC1c1cccs1 (stereo not drawn) | 21%
CCN1C(=O)CSc2ccc(C(=O)NCCCN3CCOCC3)cc21 | 7%
CC(C)Oc1ccc(C(=O)NC(=S)Nc2ccc(CN3CCOCC3)cc2)cc1 | 3%
O=C(Cc1ccc(Br)cc1)Nc1cccc(-c2cn3c(n2)SCC3)c1 | -10%
CC(C)(C)NC(=O)CSc1nc2cccnc2n1C1CCCCC1 | -1%
O=C(NCCCN1CCOCC1)C1CC(=O)N(c2ccccc2)C1 (stereo not drawn) | 11%
Cc1csc(CNC(=O)CC2C(=O)NCCN2Cc2ccc(F)cc2Cl)n1 (stereo not drawn) | -10%
CN(Cc1ccccc1)CC(O)CN(C)Cc1ccccc1 | 10%
COc1ccc(C2(O)CCN(C(=O)NC3CCCCC3)CC2)cc1 | 28%
COC(=O)c1c(NC(=O)/C=C/C(=O)O)sc(C)c1-c1ccc(C)c(C)c1 | 89µM*
CC(NS(=O)(=O)c1ccc(Br)cc1)C(=O)Nc1nc2ccccc2[nH]1 (stereo not drawn) | -24%
COC(=O)c1cn(NC(=O)c2cc(OC)c(OC)c(OC)c2)c(=O)c2ccccc12 | 3%
Cc1cccc(N(CC(=O)NCc2ccccc2)C(=O)Cn2nnc(-c3ccc(C)o3)n2)c1 | 6%
CCOC(=O)C1CN(S(=O)(=O)c2ccccc2)c2cc(S(=O)(=O)CC)ccc2O1 (stereo not drawn) | 18%
CC(/C=C/C(=O)NO)=C\[C@@H](C)C(=O)c1ccc(N(C)C)cc1 | ?
CCC1CCCCN1C(=O)N[C@@H](CCSC)C(=O)OC (stereo partly drawn) | -13%
